# GIRK2 act: GIRK2 channel activation; calls only for hits at 25 µM; 63,000 compounds, 0.05% hits; HEK293-GIRK2 thallium flux, Thallos fluorescence; AID 1259325; P48051;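 active means among the strongest 0.2% of first-round signals and kept after retests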;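 further: first round at about 10 µM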
# Target sequence (P48051 whole entry, looked up): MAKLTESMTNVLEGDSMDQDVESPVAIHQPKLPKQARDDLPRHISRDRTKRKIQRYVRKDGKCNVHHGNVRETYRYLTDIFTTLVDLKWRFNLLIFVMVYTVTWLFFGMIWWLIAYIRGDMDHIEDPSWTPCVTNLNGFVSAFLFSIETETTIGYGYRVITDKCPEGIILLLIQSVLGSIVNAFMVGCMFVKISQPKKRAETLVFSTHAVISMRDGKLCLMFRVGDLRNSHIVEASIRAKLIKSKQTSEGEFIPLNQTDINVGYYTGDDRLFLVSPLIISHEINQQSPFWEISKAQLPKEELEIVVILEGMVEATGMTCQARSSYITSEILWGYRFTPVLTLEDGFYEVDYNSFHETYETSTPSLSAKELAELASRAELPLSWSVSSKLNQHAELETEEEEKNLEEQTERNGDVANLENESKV
# Calls only; i = inactive. Not all compounds are listed; count on the stated rates, not on these rows.
GIRK2 act | canonical_smiles
i | CCOC(=O)c1ccc(Oc2coc3cc(OC(=O)C(C)C)ccc3c2=O)cc1
i | CN1CCOc2ccc(NC(=O)CC(CC(=O)O)c3cccs3)cc2C1=O (centres undefined)
i | CCN(CC)CCCN1C(=O)c2oc3ccccc3c(=O)c2C1c1ccncc1 (centres undefined)
i | COc1ccccc1Oc1c(C)oc2cc(OC(=O)C3CC3)ccc2c1=O
i | COc1cccc(CNC(=O)c2sccc2S(=O)(=O)N(C)c2ccc(Cl)cc2)c1
i | COc1ccc(-c2coc3c4c(ccc3c2=O)OCN(CCCc2ccccc2)C4)cc1OC
i | COC(=O)C(C)Oc1ccc2c(c1)O/C(=C\c1ccccc1C)C2=O (centres undefined)
i | COc1ccc(N2C(=O)C3N=NN(Cc4nc(-c5cccc(Cl)c5)no4)C3C2=O)cc1OC (centres undefined)
i | COc1ccc2c(c1)c(CC(=O)NCCCCNS(=O)(=O)c1ccc(F)cc1)c(C)n2C(=O)c1ccc(Cl)cc1
i | Cc1cc(=O)c2c(O)c3c(O)cc(O)c4c5c(O)cc(O)c6c(O)c7c(=O)cc(C)c8c1c2c(c34)c(c65)c78
i | CCN(CC)C(=O)Oc1ccc2c(=O)c(-c3ccccc3)coc2c1
i | O=C(/C=C/c1cccs1)NCC1CCN(C(=O)c2ccncc2)CC1
i | Cc1ccc(S(=O)(=O)N(C)c2c(C)cc(C)c(S(=O)(=O)NCc3ccco3)c2C)cc1
i | COc1c2c(c(C)c3c1C(=O)OC3)OC1(C)CC(O)C3(O)C(C)(C)OC(=O)CCC3(C)C1C2 (centres undefined)
i | O=C(Nc1ccc2c(c1)C(=O)N1CCCCC1CCO2)c1ccc(F)cc1Cl (centres undefined)
i | COc1ccccc1CNc1nc2ccccc2nc1NS(=O)(=O)c1ccc(F)cc1
i | CCCCCC(=O)/C=C/[C@H]1C(O)CC(O)C1CCCCCCC(=O)O (some centres undefined)
i | O=S(=O)(c1ccccc1)N1CCCSCC1CN1CCCC1 (centres undefined)
i | COC(=O)Cn1c(=O)c2c(nc3n(-c4ccccc4C)c(C)c(C)n23)n(C)c1=O
i | NC(=O)c1nnn(-c2ccc(NC(=O)/C=C/c3ccc4c(c3)OCO4)cc2)n1
i | Cc1ccccc1-n1c(-c2ccccc2)cn2c3c(=O)n(CCN4CCOCC4)c(=O)n(C)c3nc12
i | CCCCN1CC(c2nc3ccccc3n2CC(=O)N2CCOCC2)CC1=O (centres undefined)
i | Cc1cc(C(=O)Nc2cc(C)nn2-c2nc3ccccc3s2)n(C)n1
i | CC(=O)Cn1c(=O)c2c(nc3n(-c4cccc(Cl)c4)c(C)c(C)n23)n(C)c1=O
i | O=C(NCC#CCOc1ccc2c(c1)OCO2)c1c(F)cccc1F
i | COc1cccc(C(=O)NCc2ccc(C(O)c3cccs3)s2)c1OC (centres undefined)
i | Cc1cn2c3c(=O)n(Cc4ccccc4F)c(=O)n(C)c3nc2n1CCOCCO
i | O=C(NCc1ccco1)c1sccc1S(=O)(=O)N1CCN(c2cccc(Cl)c2)CC1
i | COCCN1CCC(NC(=O)c2ccc(C(C)(C)C)cc2)CC1
i | CSc1ccc(CNC(=O)c2nnn(-c3ccc(C)cc3)c2-c2cccnc2)cc1

# Filtered by structure: the entries above with four or more nitrogen atoms.
GIRK2 act | canonical_smiles
i | COc1ccc(N2C(=O)C3N=NN(Cc4nc(-c5cccc(Cl)c5)no4)C3C2=O)cc1OC (centres undefined)
i | COc1ccccc1CNc1nc2ccccc2nc1NS(=O)(=O)c1ccc(F)cc1
i | COC(=O)Cn1c(=O)c2c(nc3n(-c4ccccc4C)c(C)c(C)n23)n(C)c1=O
i | NC(=O)c1nnn(-c2ccc(NC(=O)/C=C/c3ccc4c(c3)OCO4)cc2)n1
i | Cc1ccccc1-n1c(-c2ccccc2)cn2c3c(=O)n(CCN4CCOCC4)c(=O)n(C)c3nc12
i | CCCCN1CC(c2nc3ccccc3n2CC(=O)N2CCOCC2)CC1=O (centres undefined)
i | Cc1cc(C(=O)Nc2cc(C)nn2-c2nc3ccccc3s2)n(C)n1
i | CC(=O)Cn1c(=O)c2c(nc3n(-c4cccc(Cl)c4)c(C)c(C)n23)n(C)c1=O
i | Cc1cn2c3c(=O)n(Cc4ccccc4F)c(=O)n(C)c3nc2n1CCOCCO
i | CSc1ccc(CNC(=O)c2nnn(-c3ccc(C)cc3)c2-c2cccnc2)cc1

# Next results
GIRK2 act | canonical_smiles
i | O=C(c1ccco1)N1CCN(c2cc(-c3nc(-c4cccc(F)c4)no3)c3ccccc3n2)CC1
i | COc1ccc(OCC(O)CC(=O)O)cc1 (centres undefined)
i | O=C(CN1N=NC2C(=O)N(c3ccc(Cl)cc3)C(=O)C21)Nc1ccc(F)c(Cl)c1 (centres undefined)
i | COc1ccc(Cl)cc1NC(=O)Cn1cccc(-c2nc(-c3ccc(C)cc3)no2)c1=O
i | CCN(CC)C(=O)c1cccnc1-c1nc2ccccc2s1
i | Cc1ccc(Cn2c(=O)c3ccc(C(=O)NC(C)C)cc3n3c(=O)n(C)nc23)cc1
i | CCc1noc(-c2ccc(SCC(=O)N3CCN(c4ccc(C)cc4C)CC3)nc2)n1
i | Cc1cccc(N2CC(C)Cn3c2nc2c3c(=O)n(CC(=O)O)c(=O)n2C)c1 (centres undefined)
i | O=C(NCc1cccs1)Nc1ccccc1NC(=O)c1cccc(Cl)c1
i | O=C(Nc1ccc2c(c1)OCCO2)c1c(O)c2cccnc2[nH]c1=O
i | COc1cc(CNC(=O)c2coc(NC(=O)c3ccsc3)n2)cc(OC)c1OC
i | O=c1[nH]c2nc(NCc3cccs3)ncc2c(=O)n1-c1ccccc1F
i | COc1ccc(OC)c(S(=O)(=O)N2CCC3(CC2)OCCCO3)c1
i | O=C(CSc1ccc(F)cc1)N1CCC(Oc2ccccn2)CC1
i | COc1cccc(CCNC(=O)c2cnn(-c3nc(C)cc(=O)[nH]3)c2C)c1

# Random excerpt: two records from the list.
GIRK2 act | canonical_smiles
i | CCN(CC)C(=O)c1cccnc1-c1nc2ccccc2s1
i | O=C(NCc1cccs1)Nc1ccccc1NC(=O)c1cccc(Cl)c1

# The listing continues.
GIRK2 act | canonical_smiles
i | CC(Oc1cccc(Br)c1)C(=O)Nc1ccc2c(c1)OCO2 (centres undefined)
i | C=C(C)Cn1c(=O)c2c(nc3n(-c4ccccc4F)c(C)cn23)n(C)c1=O
i | Cc1c(NC(=O)C2COCC(=O)N2Cc2cccs2)c(=O)n(-c2ccccc2)n1C (centres undefined)
i | CN(CC(=O)Nc1ccc2c(c1)OCCO2)c1nc2c(Cl)cccc2s1
i | COc1cccc(C(=O)N2CCN(c3nnc(SCC(N)=O)s3)CC2)c1OC
i | COc1ccc(Cl)cc1C(=O)NCC1CCN(C(=O)Oc2ccccc2)CC1
i | COc1ccc2c(c1)C(c1ccccc1Cl)=Nc1c(n[nH]c1C)N2
i | CCCCC[C@H](O)/C=C/[C@H]1C(=O)C=C[C@@H]1C/C=C\CCCC(=O)O
i | NC(=O)c1ccccc1OCC#CCNC(=O)c1cccc2ccccc12
i | COc1ccc(S(=O)(=O)N2CCN=C2SCc2ccc(Cl)cc2Cl)cc1
i | CCCn1cc(S(=O)(=O)c2ccc(C)cc2)c(=O)c2cc(F)c(N3CCCCC3)cc21
i | COC(=O)c1ccc(C(=O)N2CCC(c3nn(C)c(=O)n3-c3ccccc3)CC2)cc1
i | O=C(C1CCCCC1)N1CCC(c2nnc(C3CC3)s2)CC1
i | CNC(=O)C1Cc2ccccc2N1C(=O)c1ccccc1OC (centres undefined)
i | Cc1cc(C)n(CC(=O)Nc2cccc(Cl)c2C)c(=O)c1-c1nc(-c2ccccc2)no1
i | COC(=O)c1ccc(C(=O)NC2CCCCC2N2C(=O)CSC2=O)cc1 (centres undefined)
i | CCOc1ccc(-n2nnc(-c3nc(-c4ccccc4)cs3)c2N)cc1
i | O=C(CCS(=O)(=O)c1ccc(F)cc1)Nc1nc(-c2cc3ccccc3o2)cs1
i | CCOC(=O)CCC(=O)Nc1ccccc1NC(=O)c1ccccc1F
i | Cc1ccc(-c2nnc(NC(=O)C3CCN(S(=O)(=O)c4ccc(Cl)cc4)CC3)o2)c(C)c1
i | CCC(=O)Nc1ccc(S(=O)(=O)NCCN2CCN(c3ccccc3)CC2)cc1
i | CCCn1c(=O)c2c(nc3n2CCCN3c2ccc(C)cc2)n(C)c1=O
i | CCC(=O)Nc1ccc(S(=O)(=O)NCCn2nc(-c3ccc(OC)cc3)ccc2=O)cc1
i | CC(COCC(O)CN1CCN(Cc2ccc3c(c2)OCO3)CC1)c1ccccc1 (centres undefined)
i | COc1ccc(-c2nnc(CC(=O)NCc3cccc(C(F)(F)F)c3)o2)cc1
i | CC12CC(NC(=S)N1CCc1ccccc1)c1ccccc1O2 (centres undefined)
i | O=S(=O)(c1ccc2c(c1)OCCO2)N1CC(c2nc(-c3ncccn3)no2)C1
i | O=C(Nc1cnc(N2CCN(c3ccccn3)CC2)nc1)Nc1ccc2c(c1)OCCO2
i | CCCCNc1nc2c(c(=O)[nH]c(=O)n2C)n1CC(=O)c1ccc(C)cc1
i | Cc1ccc(C(=O)NCC(c2cccn2C)N2CCN(C)CC2)cc1C (centres undefined)

# The final 5 entries of the section before open the next one:
GIRK2 act | canonical_smiles
i | CC12CC(NC(=S)N1CCc1ccccc1)c1ccccc1O2 (centres undefined)
i | O=S(=O)(c1ccc2c(c1)OCCO2)N1CC(c2nc(-c3ncccn3)no2)C1
i | O=C(Nc1cnc(N2CCN(c3ccccn3)CC2)nc1)Nc1ccc2c(c1)OCCO2
i | CCCCNc1nc2c(c(=O)[nH]c(=O)n2C)n1CC(=O)c1ccc(C)cc1
i | Cc1ccc(C(=O)NCC(c2cccn2C)N2CCN(C)CC2)cc1C (centres undefined)
i | COc1ccc(-c2cc3ccc(OC(=O)c4ccco4)cc3oc2=O)c(OC)c1
i | O=C(NC1CC1)c1cn(-c2cccc(Cl)c2)nn1
i | O=C(CSc1nnc2scc(-c3ccc(Cl)cc3)n12)NCc1ccc2c(c1)OCO2
i | CC1(C)COc2ccc(NC(=O)NC(c3ccccc3)c3ccccc3)cc2NC1=O
i | O=C1C2N=NN(Cc3nc(-c4ccc5c(c4)OCO5)no3)C2C(=O)N1c1ccc2c(c1)CCC2 (centres undefined)
i | O=C1c2ccccc2C(=O)N1CCCC(=O)N1C2CCC1COC2
i | CN(C)C(CNC(=O)C(=O)Nc1cccc(C(F)(F)F)c1)c1ccc2c(c1)CCO2 (centres undefined)
i | COc1ccc(NC(=O)CCc2nc3sc4c(c3c(=O)[nH]2)CCC(C(C)(C)C)C4)cc1 (centres undefined)
i | CSc1ccccc1C(=O)NNC(=O)c1ccc(=O)n(Cc2ccc(Cl)cc2)c1
i | Cc1cc(C)cc(Nc2c(C(=O)N3CCSCC3)cnc3nc(C)ccc23)c1
i | CC(C)(C)c1ccc(C(=O)Nc2nnc(-c3cccs3)o2)cc1
i | CN(C)S(=O)(=O)c1ccc2c(c1)/C(=C/c1cc3c([nH]1)CCCC3)C(=O)N2
i | Cc1nc(-n2nc(-c3cccs3)cc2NC(=O)c2ccc3c(c2)OCO3)[nH]c(=O)c1C
i | Cc1cc(=O)n(CC(=O)Nc2cccc(C)c2C)c(N2CCCCC2)n1
i | CCSc1nnc(NC(=O)C2CCCN(c3ccc(-c4ccco4)nn3)C2)s1 (centres undefined)
i | COc1ccc(S(=O)(=O)NCC2CCN(S(=O)(=O)c3cccnc3)CC2)c(C)c1
i | COC(=O)c1ccccc1NC(=O)c1c(C)coc1C
i | COc1ccccc1NC(=O)N1CCC(Oc2ccc(C(F)(F)F)cn2)CC1
i | CC(C)n1ccc(C(=O)Nc2cc(C(C)(C)C)no2)n1
i | Cc1nnc(SCC(=O)N2CCN(c3ccccc3)CC2)c2c1cnn2-c1ccccc1
i | COc1cccc(-c2cc(C(=O)N3CCN(c4ncccn4)CC3)n(C)n2)c1
i | O=S(=O)(NCC#CCN1CCOCC1)c1cccc(Cl)c1
i | Cc1csc(SCC2CCN(C(=O)Nc3ccccc3C(F)(F)F)CC2)n1
i | O=C(NCCNc1cc(-n2cccc2)ncn1)c1cccs1
i | O=c1c2ccccc2nc(SCc2nc(-c3cccc(Cl)c3)no2)n1Cc1cccs1
i | COc1ccc(OCc2noc(CNC(=O)c3cnn(-c4ccccc4)c3C)n2)cc1
i | COc1ccc(S(=O)(=O)NCC(c2cccnc2)N2CCN(Cc3ccccc3)CC2)cc1C (centres undefined)
i | COc1ccc(S(=O)(=O)N2CCCc3cc(NS(=O)(=O)Cc4ccc(F)cc4)ccc32)cc1
i | COc1cc(CNC(=O)CCCC/C=C/C(C)C)ccc1O
i | CCCCC/C=C/C=C1/C(=O)CC(O)C1C/C=C\CCCC(=O)O (centres undefined)
i | O=C(Cc1noc2ccccc12)NCCOc1ccc(-c2ccccc2)nn1
i | O=C(c1ccco1)N1N=C(C2CC2)CC1c1cc2cc3c(cc2nc1Cl)OCO3 (centres undefined)
i | CS(=O)(=O)Oc1ccc2c(=O)c(-c3ccccc3)coc2c1
i | Cc1[nH]c(=O)n(C)c(=O)c1CCC(=O)Nc1ccc(C(N)=O)cc1
i | Cc1cc(NC(=O)c2cccs2)n(-c2nc3c(F)cccc3s2)n1
i | COc1ccc(-c2ccc(=O)n(CCNS(=O)(=O)c3ccc(F)cc3F)n2)cc1
i | NC(=O)c1ccccc1OCC#CCNC(=O)c1ccc(=O)[nH]n1
i | CN1CCCc2cc(C(CNS(=O)(=O)c3ccccc3Cl)N3CCOCC3)ccc21 (centres undefined)
i | COc1ccc(C2CCN(C(=O)c3ccc(OC)c(OC)c3)C2)cc1 (centres undefined)
i | Cc1cc(C)c2c(CN3CCN(Cc4ccccc4)CC3)cc(=O)oc2c1C
i | O=C(Oc1ccc2c(-c3cc4cc(Br)ccc4oc3=O)cc(=O)oc2c1)C1CC1
i | COc1ccc(CCS(=O)(=O)Nc2ccc3c(c2)C(=O)NCC3)cc1
i | COC(=O)N1CCC(CNS(=O)(=O)Cc2ccc(C(F)(F)F)cc2)CC1
i | COC(=O)c1c(NC(=O)c2oc3ccc(C)cc3c2C)sc(C)c1C
i | COc1cccc(C(=O)NCC#CCOc2ccccc2C(N)=O)c1
i | COc1ccc(CCNC(=O)Cn2c(=O)n(-c3cccc(C)c3)c(=O)c3ccccc32)cc1OC

# Source: PubChem (Vanderbilt University)
